Assay outcomes from PubChem.
KCNQ2 enhance – potentiators of rat KCNQ2 potassium channel. O88943. CHO-K1 KCNQ2, FluxOR thallium flux fluorescence; hits give high values. B-score at 10 µM. hit rate 0.54% among 310,000;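 active = fluorescence ratio B-score at least 3 SD of library B-scores, with initial fluorescence B-score within 3 SD, cut at about 5.3 in these data; same plate scores as AID 2156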;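 note: B-score of peak minus minimum over baseline fluorescence ratio after K+ and Tl+ stimulus; positive B-score means potentiation of KCNQ2 with more thallium influx and brighter signal; only the inactives scoring about 0 or higher are listed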
Target sequence (O88943 whole entry, looked up): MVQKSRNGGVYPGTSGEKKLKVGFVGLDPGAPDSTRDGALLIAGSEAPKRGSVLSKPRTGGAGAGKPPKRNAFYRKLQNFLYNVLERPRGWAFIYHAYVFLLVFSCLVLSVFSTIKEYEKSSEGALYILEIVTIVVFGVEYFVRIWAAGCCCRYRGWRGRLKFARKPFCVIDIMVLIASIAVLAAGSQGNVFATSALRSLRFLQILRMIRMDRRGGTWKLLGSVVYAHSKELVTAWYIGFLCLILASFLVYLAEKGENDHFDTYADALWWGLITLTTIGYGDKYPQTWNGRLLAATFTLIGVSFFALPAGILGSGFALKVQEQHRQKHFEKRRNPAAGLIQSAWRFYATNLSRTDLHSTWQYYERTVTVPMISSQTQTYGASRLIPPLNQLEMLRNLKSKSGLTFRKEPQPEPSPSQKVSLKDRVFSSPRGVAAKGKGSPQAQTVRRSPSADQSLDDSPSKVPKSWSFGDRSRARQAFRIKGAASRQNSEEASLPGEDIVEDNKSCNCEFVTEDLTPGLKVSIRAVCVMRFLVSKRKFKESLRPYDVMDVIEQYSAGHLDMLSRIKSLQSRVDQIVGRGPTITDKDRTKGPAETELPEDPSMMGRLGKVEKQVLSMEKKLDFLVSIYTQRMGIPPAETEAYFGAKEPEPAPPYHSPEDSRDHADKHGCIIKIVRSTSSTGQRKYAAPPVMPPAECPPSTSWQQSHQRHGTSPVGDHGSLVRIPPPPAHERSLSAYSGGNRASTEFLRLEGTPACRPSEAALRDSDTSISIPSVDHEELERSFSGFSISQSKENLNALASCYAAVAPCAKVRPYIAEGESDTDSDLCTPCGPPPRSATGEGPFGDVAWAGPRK
KCNQ2 enhance baseline – also measured in KCNQ2 enhance; calls as there; B-score; compound at 10 µM; measured here: initial fluorescence intensity artifact check;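 brightness before thallium and not channel activity; 0 = typical well and far values either way flag optical interference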
Numbers without * were called inactive.

structure | KCNQ2 enhance | KCNQ2 enhance baseline
CCNc1oc(-c2ccc(OC)cc2)nc1S(=O)(=O)c1ccc(Br)cc1 | 0.12 | -1.46
O=C(NC(Cc1ccccc1)C(=O)O)/C(=C\c1ccc(Cl)cc1)NC(=O)c1ccccc1 (stereo not given) | 2.68 | 1.85
CS(=O)(=O)c1ccc(C(=O)NC2CCCCC2)cc1 | 0.35 | -0.08
O=C(Nc1ccncc1)c1ccc(Cl)c(S(=O)(=O)N2CCCCC2)c1 | 0.69 | 0.06
O=C(Nc1n[nH]c(=S)s1)c1ccc2ccccc2c1 | 6.45* | 1.48*
COC(=O)c1cn(NC(=O)CC2CCCCC2)c(=O)c2ccccc12 | 13.9* | 0.69*
COc1cc(C(=O)Nc2nc3ccccc3[nH]2)ccc1OC(F)F | 0.14 | -0.03
CC1CCN(c2ncnc3c2cnn3-c2ccccc2)CC1 | 0.31 | 0.83
COc1ccc(N2CCN(C(=O)CCS(=O)(=O)c3ccc(OC)cc3)CC2)cc1 | 0.6 | -0.38
CSc1nc(C)c(Oc2ccccc2)c(=O)n1C | 0.01 | 1.56
O=c1c2cc(Cl)ccc2oc2nc3n(c(=O)c12)CCCS3 | 0.73 | 1.06
CCN(CC)CCCNC(=O)Cn1cnc2ccc(S(=O)(=O)N3CCC(C)CC3)cc2c1=O | 1.06 | -1.11
Cc1c(CC(=O)N2CCN(C(=O)C3COc4ccccc4O3)CC2)c(=O)oc2c(C)c(O)ccc12 (stereo not given) | 0.98 | -0.02
CCC1CCCCN1CCCNC(=O)C1CCCN(c2nn3c(=O)cc(C)nc3s2)C1 (stereo not given) | 0.31 | 0.48
Cc1n[nH]c(=S)n1/N=C/c1ccc(-c2ccccc2[N+](=O)[O-])o1 | 0.04 | 0.51
Cc1cc(C)c(C)c(S(=O)(=O)NCc2ccc(C(=O)NCC3CCCO3)cc2)c1C (stereo not given) | 1.88 | 0.04
O=C(Nc1ccc(N2CCOCC2)cc1)C1(S(=O)(=O)c2ccccc2)CC1 | 0.27 | 3.39
CCCSCCCNC(=O)Cn1cc2c(n1)CCC(C)C2 (stereo not given) | 1.53 | 0.19
O=C(Oc1cccc(NC2=NS(=O)(=O)c3ccccc32)c1)c1ccncc1 | 0.05 | -3.07
COc1ccc(OC)c(NC(=O)c2ccc(NC3=NC4CS(=O)(=O)CC4S3)cc2)c1 (stereo not given) | 1.04 | 2.86
Cc1nc2ccccc2c(=O)n1/N=C/c1ccc(OC(F)F)cc1 | 0.58 | -0.55
O=C(NCc1ccc2c(c1)OCO2)c1ccc(CS(=O)Cc2ccc(Cl)cc2)o1 (stereo not given) | 1.47 | 0.33
COC(=O)c1ccc(C2C(C(C)=O)=C(C)Nc3ncnn32)cc1 (stereo not given) | 0.29 | -0.16
COc1ccc(C=O)cc1Cn1c(C)cc(C)c(C#N)c1=O | 0.11 | -0.02
CCCn1c(=N)n(CC(=O)c2ccco2)c2ccccc21 | 0.07 | 1.45
COc1cccc(-c2coc3c(C)c4oc(=O)c(CC(=O)O)c(C)c4cc23)c1 | 0.8 | 0.06
C=C1CCN(C(C)C(=O)O)S(=O)(=O)c2ccccc21 (stereo not given) | 1.17 | 0.58
O=C(CC12CC3CC(CC(C3)C1)C2)Nc1c(F)cccc1F | 9.96* | -1.28*
COc1cccc(NC(=S)NCc2ccco2)c1 | 2.01 | -0.57
Cc1noc(C(=O)Nc2sc3c(c2C#N)CCC3)c1Cl | 2.2 | -1.14
CCN(CC(=O)Nc1c(F)cccc1F)C(=O)C1CC(=O)N(c2ccccc2OC)C1 (stereo not given) | 0.04 | 0.91
CN(Cc1cccc(F)c1)C(=O)c1cc(=O)[nH]c2ccccc12 | 1.59 | 2.16
COc1ccc(-c2nn(-c3ccccc3)cc2C(=O)NC2CCCCC2C)cc1 (stereo not given) | 0.03 | -0.17
COc1ccc(-n2c(NC(=O)c3ccc(Br)o3)c(C#N)c3nc4ccccc4nc32)cc1 | 1.46 | -1.45
O=C(Nc1ccc(Oc2ccc(Cl)cc2)cc1)c1ncn[nH]1 | 0.41 | -0.17
COC(=O)N/N=C(\C)c1cccc(C(F)(F)F)c1 | 0.17 | 4.07
CC1CC(=O)c2cnc(N)nc2C1 (stereo not given) | 0.52 | -0.62
CC(C)c1onc(C(=O)N2CCN(c3ccccc3)CC2)c1[N+](=O)[O-] | 1.14 | -0.58
Cc1cc(OCCn2nc(C(=O)O)c3ccccc3c2=O)ccc1C(C)C | 1.22 | 0.19
CC(C)CCNC(=O)CCCC1=NS(=O)(=O)c2ccccc2N1 | 1.95 | 0.02

Record cards, as listed above.
Cc1n[nH]c(=S)n1/N=C/c1ccc(-c2ccccc2[N+](=O)[O-])o1 reads KCNQ2 enhance = 0.04; KCNQ2 enhance baseline = 0.51
COC(=O)c1ccc(C2C(C(C)=O)=C(C)Nc3ncnn32)cc1 (stereo not given) reads KCNQ2 enhance = 0.29; KCNQ2 enhance baseline = -0.16

(further entries)
structure | KCNQ2 enhance | KCNQ2 enhance baseline
CC(C)NC(=O)NC(=O)COC(=O)CCCSc1nc2ccccc2s1 | 0.13 | -0.12
Cn1nccc1NS(=O)(=O)c1ccc(C(C)(C)C)cc1 | 0.25 | 0
O=C(COc1ccc(Br)cc1CO)Nc1ccccc1 | 0.04 | -0.01
Cc1nc2n(n1)CC(O)CS2 (stereo not given) | 1.32 | 0.61
CC(=O)OCc1cc(-c2nn(C)c(=O)c3ccccc23)ccc1C | 1.41 | -1.18
Cc1ccc(C(=O)O/N=C(\N)c2ccc(Br)cc2)cc1 | 0.33 | 1.11
COc1ccccc1OCCOCCOc1ccc(C)cc1[N+](=O)[O-] | 0.14 | 0.33
OCCNCCOc1ccccc1-c1ccccc1 | 0.03 | -0.56
C[C@@H]1C=C(C(=O)NCc2ccccc2)O[C@H](OCc2ccc(CO)cc2)C1 | 0.17 | -0.27
O=C(O)c1ccc(NS(=O)(=O)c2ccc(N3C(=O)CCC3=O)cc2)cc1 | 0.06 | 0.94
O=C(Cn1c(=O)oc2cc(S(=O)(=O)N3CCCC3)ccc21)N1CCN(c2ccccn2)CC1 | 1.15 | -2.58
Clc1ccc(SCCOCCN2CCCCCC2)cc1 | 1.27 | 2.33
COC(=O)c1cc(S(=O)(=O)NCC2CCN(CCc3ccc(OC)cc3)CC2)cn1C | 1.06 | 0.08
O=C(NS(=O)(=O)c1ccc(Cl)s1)c1ccccc1 | 0.19 | 1.84
Cc1cccc(CN2CCC(n3nccc3NC(=O)c3ccccc3C)CC2)n1 | 1.1 | -1.33
COCCn1c(SCC(=O)Nc2ccc(S(=O)(=O)N3CCOCC3)cc2)nc2ccccc21 | 2.11 | -1.04
O=C(CN1CCOCC1)N/N=C/c1ccc(-c2ccc(C(=O)O)cc2)o1 | 1.02 | 0.15
O=C(C1CCCO1)N1CCN(c2ncccn2)CC1 (stereo not given) | 1.7 | -1.51
O=C(Nc1ccccc1)N1N=CCC1c1ccccc1 (stereo not given) | 0.03 | -1.04
O=S(=O)(Nc1nc2c(s1)CCCC2)c1ccc(F)cc1 | 0.47 | 1.71
CC1(c2ccccc2)NC(=O)N(CC(=O)Nc2cc(S(=O)(=O)N3CCOCC3)ccc2Cl)C1=O (stereo not given) | 0.59 | -1.11
CC(/C=N/NC(=O)c1cc(-c2ccc(C)o2)[nH]n1)=C\c1ccccc1 | 0.62 | -0.57
CCc1ccccc1N(CC(=O)NC1CCCCC1)C(=O)CCC(=O)Nc1ccccn1 | 0.55 | -0.02
Cc1nn(Cc2cccc(Oc3ccccc3)c2)c(C)c1NC(=O)NC12CC3CC(CC(C3)C1)C2 | 3.51 | -0.02
CNc1cc(N2CCN(S(=O)(=O)N(C)C)CC2)ccc1[N+](=O)[O-] | 0.77 | 1.82
CC(C)(CNC(=O)Cc1ccc(Cl)cc1Cl)N1CCOCC1 | 1.22 | 2.6
CCN(C(=O)c1cc2ccccc2oc1=O)c1ccccc1 | 0.28 | 1.08
N#Cc1ccccc1COC(=O)c1cc(=O)c2ccccc2o1 | 0.11 | 0.3
COc1cccc(C(C)NC(=O)C2CCCO2)c1 (stereo not given) | 0.15 | -1.17
Cc1cccnc1NC(=O)COc1ccc2c(c1)CCC2 | 0.06 | 0.45
O=C(O)CSC1CC(=O)N(c2ccc(Cl)c(Cl)c2)C1=O (stereo not given) | 1.01 | 0.18
O=C(CNS(=O)(=O)c1ccc(Cl)cc1)N/N=C/c1ccco1 | 0.93 | 0.03

The closing 4 records of the part before open the next one:
structure | KCNQ2 enhance | KCNQ2 enhance baseline
COc1cccc(C(C)NC(=O)C2CCCO2)c1 (stereo not given) | 0.15 | -1.17
Cc1cccnc1NC(=O)COc1ccc2c(c1)CCC2 | 0.06 | 0.45
O=C(O)CSC1CC(=O)N(c2ccc(Cl)c(Cl)c2)C1=O (stereo not given) | 1.01 | 0.18
O=C(CNS(=O)(=O)c1ccc(Cl)cc1)N/N=C/c1ccco1 | 0.93 | 0.03
O=C(COc1cccc(Br)c1)N/N=C/C(=O)c1ccccc1 | 1.88 | 0.37
COc1cc(NC(=O)CCn2c(=O)oc3ccccc32)cc(OC)c1OC | 1.11 | -0.49
CS(=O)(=O)N(CCC#N)Cc1ccco1 | 0.25 | 0.36
CCNS(=O)(=O)c1ccc(NC(=O)Nc2cc(C)ccc2OC)cc1 | 0.86 | -0.92
COc1ccc2nc(SCC(=O)Nc3ccccc3C#N)[nH]c2c1 | 1.13 | 0.58
Cc1ccc(S(=O)(=O)Nc2cccc(C(=O)NCC(C)(C)N3CCOCC3)c2)cc1F | 0.08 | -0.46
O=C1CC(c2ccccc2)Cc2nc3ncnn3cc21 (stereo not given) | 0.08 | 0.29
O=C(CNC(=O)Cc1ccccc1)NCC(=O)N1CCN(C(c2ccccc2)c2ccccc2)CC1 | 0.11 | -1.71
CCn1c(SCC(=O)N2CCCC2)nc2ccccc21 | 0.9 | -0.02
CCOc1ccc(Nc2nc(N)nc(CN3CCN(c4ccccc4F)CC3)n2)cc1 | 5.09 | -0.05
Cc1cc2c(n1-c1ccc(C(=O)O)cc1)CCCCC2 | 0.81 | 4.73
C/C(=C\C(=O)c1ccccc1)Nc1ccc(Br)c(Cl)c1 | 0.89 | -0.26
O=C1CC(N2CCC(c3nc4ccccc4s3)CC2)C(=O)N1Cc1ccccc1 (stereo not given) | 0.14 | 0.63
CC(C)CCOc1ccc(C2(C)NC(=O)N(CN3CCOCC3)C2=O)cc1 (stereo not given) | 1.18 | 1.42
CCCCN(CC)CCCNC(=O)c1cc2c(-c3ccc(OC)c(OC)c3)nn(C)c2s1 | 2.26 | -0.84
O=S(=O)(NCCc1csc(-c2cccnc2)n1)c1ccc(Cl)s1 | 2.14 | 1.48
C/C(CC(=O)Nc1ccc(OCc2ccccc2)cc1)=N\NC(=O)C(=O)Nc1ccc(C)c(Cl)c1 | 0.59 | -0.24
Cc1cc(NC(=O)CCC(=O)N(CC(=O)NCC2CCCO2)c2ccc(F)c(Cl)c2)no1 (stereo not given) | 0.9 | -0.28
Fc1ccc(CSc2ccc3nnc(-c4cccnc4)n3n2)cc1 | 1.24 | -3.17
CCN(CC)S(=O)(=O)c1ccc(C(=O)NNC2=NS(=O)(=O)c3ccccc32)cc1 | 0.35 | -0.36
Cc1nc2ccccc2n1C(=O)N(C)C | 0.81 | 0.45
O=C(N/C(=C\c1ccccc1)C(=O)N1CCOCC1)c1ccco1 | 0.07 | 0.25
Cc1cccc(/C=N/N2CCN(c3ccccc3)CC2)c1 | 0.33 | -1.48
O=C(c1ccc(S(=O)(=O)N2CCCC2)cc1)N1CCN(S(=O)(=O)c2cccc(F)c2)CC1 | 0.09 | 0.8
C/C(=C\C(=O)c1ccncc1)Nc1ccccc1O | 0.75 | 0.01
COc1c(C)cc(C(=O)C2CCCN(Cc3cnc(N4CCOCC4)s3)C2)cc1C (stereo not given) | 0.03 | -1.99
O=C(NC(=S)Nc1cccnc1)c1cccs1 | 2.03 | -0.04
Cc1cc(=O)oc2c3c(cc(OCC(=O)N4CCC[C@H]4C(=O)O)c12)OC(C)(C)CC3 | 0.47 | 1.35
Cc1ccc(S(=O)(=O)NNC(=O)C(O)(c2ccccc2C)c2ccccc2C)cc1 | 2.41 | 1.47
C/C=C/C(=O)OCC(=O)Nc1ccccc1Br | 1.49 | -0.38
COc1cc(NC(=O)C(C)C)ccc1NC(=O)c1cc2ccccc2o1 | 0.2 | 0.81
CC(C)N1CC(C(=O)Nc2cccc([N+](=O)[O-])c2)CC1=O (stereo not given) | 1.11 | 0.05
Cc1ccc(CNC(=O)c2ccc(NS(=O)(=O)c3cccs3)cc2)cc1 | 0.3 | -0.23
CCOC(=O)c1c(NC(=O)CSc2n[nH]c(N)n2)sc(CC)c1C | 0.91 | 1.38
O=C1CSC(c2ccccn2)N1c1ccc(Cl)c(Cl)c1 (stereo not given) | 2.02 | -0.19
CC1OC(Nc2ccc(OC(F)(F)F)cc2)C(O)C(O)C1O (stereo not given) | 0.26 | -0.6
CCCN(CC1CC1)C(=S)Nc1ccccc1F | 1.09 | -1.83
Cc1ccc(C(=O)NCC2CCCO2)cc1N1CCCC1=O (stereo not given) | 0.42 | -2.03
Cc1ccc(C(=O)Nc2cccc(-c3ccc(N4CCOCC4)nn3)c2)cc1 | 0.92 | 1.02

An excerpt (hit frequency here may not be typical).
